Assay outcomes from PubChem BioAssay.
HIV Env fusion = inhibitors of HIV Env-mediated cell fusion; 360,000 compounds, 1.1% hits; AID 651610; inhibition, % at 12.3 µM; HeLa-JRFL Env/CEM21 cell fusion, luciferase;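 active means mean replicate inhibition score of at least 50 and every replicate individually at or above 50; inconclusive means only one of the two criteria met; inactive means mean below 50 and not all replicates reaching 50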;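 further: 0% = plate neutral controls and 100% = maraviroc near 300 nM; one replicate is shown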
Rce1 inh = yeast Ras-converting enzyme inhibition; Q03530; yeast membranes, quenched prenylated peptide cleavage fluorescence; calls only; 290,000 compounds, 0.27% hits;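 active means fall in fluorescence gain of 50% or more versus controls, with final raw signal at or below 3038400; inconclusive means same 50% fall but final raw signal above 3038400; inactive means fall in fluorescence gain under 50%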;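 further: plate controls were neutral control wells for no effect and wells lacking membranes for full effect; tested at 10 µM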
Target sequence (Q03530 whole entry, looked up): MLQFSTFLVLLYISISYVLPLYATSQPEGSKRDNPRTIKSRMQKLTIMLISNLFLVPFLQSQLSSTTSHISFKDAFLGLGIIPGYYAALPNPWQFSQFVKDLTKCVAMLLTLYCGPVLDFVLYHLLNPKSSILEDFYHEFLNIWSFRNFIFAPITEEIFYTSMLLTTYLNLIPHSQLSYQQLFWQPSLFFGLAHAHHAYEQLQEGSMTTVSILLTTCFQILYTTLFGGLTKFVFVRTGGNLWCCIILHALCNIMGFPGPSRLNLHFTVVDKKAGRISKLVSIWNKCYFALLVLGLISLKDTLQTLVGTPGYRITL
MT1-MMP act inh = inhibitors of human MT1-MMP activation. HT1080 RFP-PRO-GFP cells, GFP/RFP ratio fluorescence, overnight; percent of plate control window, DMSO zero. AID 651647. P50281. GFP/RFP ratio change, % at 20 µM. 360,000 compounds, 0.061% hits;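 active means GFP/RFP ratio change of at least 30% with cell ATP level not reduced by more than half and red fluorescence within 50% of control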; further: strong numbers were not always called active
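Test system: HT1080 cells expressing an RFP-PRO-GFP fluorescent reporter construct / Compound dosing: single-point 20 µM compound, 1% DMSO / Schedule: cells overnight before dosing, compound overnight, 37 °C, 5% CO2 / Evaluation: GFP/RFP fluorescence ratio / Control set: DMSO and RFP-L50D-GFP cell wells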
UUG fidelity = yeast start codon fidelity modulation | S. cerevisiae UUG-firefly luciferase reporter, luminescence/redox ratio | activity score, % at 18.7 µM | 350,000 compounds, 0.13% hits;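 active means replicate mean at a twofold rise or more, about +100% in these data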;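 further: firefly luciferase made from a UUG start codon reports start codon fidelity; reporter light over untreated wells divided by growth signal over untreated wells; some hits fall short of that in this replicate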
CSC inhib = cancer stem cell inhibition | cancer stem cell-like cells viability, luminescence | AID 2717 | 300,000 compounds, 1.1% hits | inhibition, % at 7.5 µM;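 active means mean at 75% or more and at least half the replicates too; inconclusive means mean and replicates disagree; tested in HMLE shEcad cells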;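 further: 0% = median of negative and 100% = median of positive control wells; the first replicate is given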
eIF4H inh = inhibitors of RNA binding by human eIF4H. inhibition, % at 35 µM. 290,000 compounds, 0.94% hits. eIF4H fluorescence polarization binding assay;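 active means 50% or more with normal probe brightness, or confirmed in later tests; inconclusive means above 50% with abnormal brightness, or retests that disagree; inactive means below 50% or failed in later tests; about a fifth of its hits are not listed in these tables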;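 further: calls also rest on retests at 20 µM and on dose response follow-up; 0% = protein and probe with vehicle and 100% = probe without protein; strong numbers were not always called active; many hits fall short of the cut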
PABP polyA inh = blocks human PABP binding to poly(A) RNA; P11940; fluorescence polarization; inhibition, % at 35 µM; 290,000 compounds, 1% hits; AID 2014;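 active means 50% or more with normal probe brightness, or confirmed in later tests; inconclusive means above 50% with abnormal brightness, or retests that disagree; inactive means below 50% or failed in later tests; about a fifth of its hits are not listed in these tables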;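 further: calls also rest on retests at 20 µM and on dose response follow-up; controls were probe without protein and protein plus probe with vehicle; some compounds called inactive have numbers as strong as hits; many hits fall short of the cut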
eIF4H inh retest = also measured in eIF4H inh; calls as there; inhibition, %; compound at 20 µM; confirmation average;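 mean of two retest wells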
PABP polyA inh retest = also measured in PABP polyA inh; calls as there; inhibition, %; compound at 20 µM; confirmation repeats;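 mean of two retest wells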
MT1-MMP act inh RFP = recorded beside MT1-MMP act inh, whose call it bears; RFP signal change, %; measured here: RFP expression control read;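 0 = vehicle wells; hits needed this value within 50% of zero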
* = called active by the depositor; i = inactive; ? = inconclusive; . = no result given.

SMILES | HIV Env fusion | Rce1 inh | MT1-MMP act inh | MT1-MMP act inh RFP | UUG fidelity | CSC inhib | eIF4H inh | PABP polyA inh | others
Oc1ccccc1Nc1nc(-c2ccccc2O)nc2ccccc12 | 23 | i | -2 | -3 | -8 | 1 | 9 | -2
COc1cccc(N2CCN(C(=O)c3ccc4nc[nH]c4c3)CC2)c1 | -173 | i | -3 | 1 | -14 | 7 | 22 | 5
O=C(N/N=C/c1c(O)ccc2ccccc12)c1[nH]ncc1Br | -92 | i | -29 | -12 | . | 108* | -10 | -6
O=c1c2ccccc2[nH]c(=S)n1CCc1ccccc1 | -6 | i | 1 | 2 | . | -4 | 4 | -9
CC(C)CNC(=S)N1CCC(C(=O)c2ccc(F)cc2)CC1 | 18 | i | 0 | -11 | -20 | -8 | 6 | 8
COc1ccc(NC(=O)Nc2cc(C)cc(C)c2)cn1 | 13 | i | -8 | -3 | 4 | -7 | 50 | 37
CCOc1cc(N2CCOCC2)c(OCC)cc1NC(=O)Cn1cnnn1 | . | . | 4 | -1 | -16 | -1 | . | .
O=C(Cn1nnc(-c2ccc(CN3CCOCC3)cc2)n1)NC1CCCCC1 | -3 | i | 3 | -3 | -16 | -19 | -4 | 12
CC1CCCN(C(=S)NCc2ccccc2)C1 (stereo not given) | 4 | i | -3 | -1 | -3 | 3 | -14 | -4
COc1ccc(CC(N)c2csc(NC(=O)c3ccccc3OC)n2)cc1 (stereo not given) | -51 | . | 10 | 7 | -11 | . | . | .
COc1ccc(CN2CCC(C(=O)Nc3ccc(Oc4cccnc4)cc3)CC2)c(C)c1C | -7 | i | 1 | -21 | -24 | 44 | 2 | -6
O=C(O)[C@H](Cc1ccccc1)NC(=O)N1CCC(Cc2ccccc2)CC1 | -15 | i | -3 | 0 | -8 | -14 | -2 | -2
CCCOc1ccc(C(=O)N2CCCC2)cc1OC | 13 | . | 0 | -2 | -12 | -9 | 0 | 4
COc1ccc(CCNC(=O)CN(C2CCCCC2)S(C)(=O)=O)cc1 | . | i | 13 | -3 | 16 | -1 | -5 | -3
CC(OC(=O)c1cccc(-n2cnnn2)c1)C(=O)Nc1ccc(F)cc1Cl (stereo not given) | 6 | i | 3 | 0 | -2 | -15 | . | .
COc1ccc(N(C)S(=O)(=O)c2c(C)[nH]c(=O)[nH]c2=O)c(OC)c1 | -57 | i | 5 | 10 | -22 | -17 | -12 | -5
O=C(NCc1ccccc1F)c1cccc(S(=O)(=O)NCc2ccccc2)c1 | 7 | i | -1 | 0 | 6 | 4 | -10 | -12
CN(C)c1ccc(C(=O)NNC(=O)c2ccc(Cl)cc2)cc1 | -40 | i | 2 | 2 | -21 | -12 | -2 | -1
O=C(c1cc(-c2ccc(Cl)cc2)n(-c2ccc(Cl)cc2)n1)N1CCOCC1 | . | i | -4 | -4 | -7 | . | 3 | 0
CCC(C)c1ccc(NC(=O)C2CC2)cc1 (stereo not given) | -46 | i | 4 | 4 | -11 | -10 | -10 | 4
CCc1ccc(NC(=O)CS(=O)CC(=O)Nc2ccc(F)cc2F)cc1 (stereo not given) | -37 | i | 3 | 6 | -11 | -17 | -14 | -16
O=C(CSc1nnnn1-c1cccnc1)Nc1ccc(OCc2ccccc2)cc1 | . | i | 5 | -4 | -16 | 4 | 5 | -11
O=C(NNC(=O)c1cnccn1)c1cccc([N+](=O)[O-])c1 | -42 | i | -1 | 1 | -29 | 8 | 4 | 0
COc1ccc(-n2c(=S)[nH]c3cc(C(=O)Nc4ccc(OC)c(OC)c4)ccc3c2=O)cc1 | . | i | -3 | -1 | -22 | 16 | -3 | -11
COc1ccc(-c2[nH]nc3c2C2(C(=O)N(CC(=O)O)c4ccccc42)C(C#N)=C(N)O3)cc1OC (stereo not given) | -9 | i | 12 | 9 | 17 | . | 12 | 18
COC(=O)c1ccc(Cn2cnc3c(cnn3-c3ccc(F)cc3)c2=O)o1 | . | i | 0 | -3 | . | -7 | -4 | 11
Cc1c(Cl)cccc1NC(=O)CSC(C)c1nc2ccccc2c(=O)[nH]1 (stereo not given) | 4 | i | -1 | 0 | -1 | -2 | -7 | 4
CCC(C)c1ccc(OCCn2ccnc2)cc1 (stereo not given) | . | i | 0 | -6 | 0 | 18 | 4 | -6
O=C(O)CCC(=O)N1CCc2cc(S(=O)(=O)N3CCCCC3)ccc21 | . | i | -3 | 2 | -17 | -4 | -8 | -14
Nc1ccc2ncccc2c1 | . | i | -4 | 3 | . | 4 | 4 | -8
CCOC(=O)N1CCN(c2nc(SC)nc3sc4c(c23)CC(C)(C)OC4)CC1 | . | i | -3 | -8 | -4 | -12 | -4 | -6
COc1ccc(OC)c(NC(=O)CCc2nnc3ccc(NCc4ccco4)nn23)c1 | -14 | i | -2 | 5 | -11 | -14 | 34 | 15
O=C(OCC(=O)N1CCCCCC1)c1cccnc1Cl | -20 | . | -1 | 0 | -4 | -13 | . | .
COC(=O)C1CCCCN1C(=O)c1ccc2oc(Cc3ccccc3)nc2c1 (stereo not given) | -22 | i | 1 | 0 | -8 | . | -3 | -13
COc1ccc(OCC(=O)N2CCN(C(=O)c3cccs3)CC2)cc1 | . | i | -1 | 5 | -9 | -6 | -3 | -5
N#Cc1ccc(Cn2c(=O)c(C#N)c3n(c2=O)CCC3)cc1 | -8 | . | 1 | 6 | -10 | 4 | 7 | -15
COc1cccc(OC)c1NC(=O)c1nc2c(nnn2Cc2ccccc2Cl)c(=O)[nH]1 | 8 | i | 5 | 3 | -10 | 4 | 0 | 5
Cc1ccc(C(=O)NCC(=O)N2CCCCCCC2)cc1C | . | . | 1 | 4 | 19 | -5 | . | .
NNc1nc2c(Cl)ccc(Cl)c2s1 | -66 | i | 10 | -16 | -10 | 18 | 62* | 3.3* | eIF4H inh retest=99*;PABP polyA inh retest=100*
O=C(NCCN1CCN(Cc2ccc([N+](=O)[O-])cc2)CC1)C(=O)Nc1ccccc1 | . | i | 5 | -4 | -9 | 0 | -2 | 16
Cc1c(C(=O)OC(C)C)[nH]c2c1C(=O)CC(C)(C)C2 | . | i | 0 | -4 | -13 | 48 | 1 | 3
COc1ccc(CCNC(=O)CSc2nnc(-c3ccccc3)c3ccccc23)cc1OC | 14 | i | 0 | -2 | -24 | -20 | -10 | -27
CCOc1cc(C(C#N)N2CCCCC2)ccc1OC (stereo not given) | . | i | 7 | 10 | -13 | 9 | -2 | 3
CCN(CC)S(=O)(=O)c1ccc(NC(=O)CCNC(=O)c2ccccc2)cc1 | 9 | i | -1 | -2 | -8 | -9 | 0 | -7
Cn1c(=O)c2c(nc(CN3CCN(C(=O)c4ccco4)CC3)n2CCCO)n(C)c1=O | 0 | i | 4 | 4 | 7 | -17 | -4 | 1
CCOc1cc(/C=N/NC(=O)c2cc(C3CC3)[nH]n2)ccc1O | -1 | . | 4 | 0 | . | 5 | -10 | -14
COc1cc([N+](=O)[O-])ccc1NC(=S)NNC(=O)c1ccc2c(c1)OCO2 | -4 | i | 2 | -2 | -25 | 37 | 9 | 18
O=C(CSc1nnc(NC(=O)c2c(F)cccc2F)s1)NCc1ccccc1 | -3 | i | 0 | 2 | -18 | -7 | -11 | 0
COC(=O)C(NC(C)=O)(Nc1nc(C)cs1)C(F)(F)F (stereo not given) | -81 | i | 2 | 5 | -29 | -11 | -4 | 5
COc1ccccc1/C=C/C(=O)Nc1ccc(S(=O)(=O)Nc2cc(C)nc(C)n2)cc1 | 3 | i | 10 | -2 | -3 | -2 | 5 | 16
CC(NC(=O)CCc1nnc(Cc2cccc(C(F)(F)F)c2)o1)C1CC1 (stereo not given) | -39 | i | -3 | 2 | -13 | 2 | 0 | 1
C#CCN(C[C@@H]1[C@@H](OC(=O)NCc2ccc(OC)c(OC)c2)[C@@H](OC(=O)NCc2ccc(OC)c(OC)c2)CN(C(=O)OC(C)C)N1C(=O)OC(C)C)S(=O)(=O)c1ccc(C)cc1 | -76 | . | 4 | 2 | 6 | . | . | .
Cc1ccccc1OCC(O)CN1CCN(CC(O)COc2ccccc2C)CC1 (stereo not given) | 37 | i | 0 | 0 | . | -2 | -6 | ?
CN1OC[C@@H]2CN(C(=O)C(C)(C)C)[C@H](c3cccc(Oc4ccccc4)c3)C[C@@H]21 | -89 | . | -1 | 0 | 6 | . | . | .
CC(=O)Oc1ccc(/C=C2/Oc3ccccc3C2=O)cc1 | -6 | i | -3 | -11 | -5 | 6 | -12 | 1

Molecules from the list above that have a COOH group:
SMILES | HIV Env fusion | Rce1 inh | MT1-MMP act inh | MT1-MMP act inh RFP | UUG fidelity | CSC inhib | eIF4H inh | PABP polyA inh | others
O=C(O)[C@H](Cc1ccccc1)NC(=O)N1CCC(Cc2ccccc2)CC1 | -15 | i | -3 | 0 | -8 | -14 | -2 | -2
COc1ccc(-c2[nH]nc3c2C2(C(=O)N(CC(=O)O)c4ccccc42)C(C#N)=C(N)O3)cc1OC (stereo not given) | -9 | i | 12 | 9 | 17 | . | 12 | 18
O=C(O)CCC(=O)N1CCc2cc(S(=O)(=O)N3CCCCC3)ccc21 | . | i | -3 | 2 | -17 | -4 | -8 | -14

Three structures from above, sorted by formula weight, ascending.
SMILES | HIV Env fusion | Rce1 inh | MT1-MMP act inh | MT1-MMP act inh RFP | UUG fidelity | CSC inhib | eIF4H inh | PABP polyA inh | others
CC(=O)Oc1ccc(/C=C2/Oc3ccccc3C2=O)cc1 | -6 | i | -3 | -11 | -5 | 6 | -12 | 1
CCN(CC)S(=O)(=O)c1ccc(NC(=O)CCNC(=O)c2ccccc2)cc1 | 9 | i | -1 | -2 | -8 | -9 | 0 | -7
O=C(CSc1nnc(NC(=O)c2c(F)cccc2F)s1)NCc1ccccc1 | -3 | i | 0 | 2 | -18 | -7 | -11 | 0

7 consecutive entries already listed, quoted:
SMILES | HIV Env fusion | Rce1 inh | MT1-MMP act inh | MT1-MMP act inh RFP | UUG fidelity | CSC inhib | eIF4H inh | PABP polyA inh | others
Cc1c(C(=O)OC(C)C)[nH]c2c1C(=O)CC(C)(C)C2 | . | i | 0 | -4 | -13 | 48 | 1 | 3
COc1ccc(CCNC(=O)CSc2nnc(-c3ccccc3)c3ccccc23)cc1OC | 14 | i | 0 | -2 | -24 | -20 | -10 | -27
CCOc1cc(C(C#N)N2CCCCC2)ccc1OC (stereo not given) | . | i | 7 | 10 | -13 | 9 | -2 | 3
CCN(CC)S(=O)(=O)c1ccc(NC(=O)CCNC(=O)c2ccccc2)cc1 | 9 | i | -1 | -2 | -8 | -9 | 0 | -7
Cn1c(=O)c2c(nc(CN3CCN(C(=O)c4ccco4)CC3)n2CCCO)n(C)c1=O | 0 | i | 4 | 4 | 7 | -17 | -4 | 1
CCOc1cc(/C=N/NC(=O)c2cc(C3CC3)[nH]n2)ccc1O | -1 | . | 4 | 0 | . | 5 | -10 | -14
COc1cc([N+](=O)[O-])ccc1NC(=S)NNC(=O)c1ccc2c(c1)OCO2 | -4 | i | 2 | -2 | -25 | 37 | 9 | 18
